Screens deposited in PubChem BioAssay by National Center for Advancing Translational Sciences (NCATS).
gsp antag: qHTS for Antagonists of gsp, the Etiologic Mutation Responsible for Fibrous Dysplasia/McCune-Albright Syndrome: qHTS; AID 624288, 2012; gsp-mutant cells, cAMP HTRF, 30 min; control for the full effect not named in the record; Potency, µM (titrated, usually from 76.9 µM), for the others: at the highest dose activity change, negative = inhibition, most hits filed as inhibitors; 340,000 tested, 0.4% active; active = falling curve of any shape with a large fitted effect; inconclusive = falling curve, mostly with a smaller effect; inactive = flat or rising curve; cell line not stated here;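 note: intracellular cAMP measured with PDE inhibitor Ro 20-1724 present during compound exposure; potency is the fitted concentration of half-maximal effect; % is set by controls: 0 for no effect and ±100 for the full control effect; nearly all actives have a fitted effect of over 65% in size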
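HTRF cAMP measurement after 30 min RT detection following 30 min, 37C compound treatment alongside […] (added as 300 uM solution) in G418-selected cells seeded at 2000/well and grown 16–24 h.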
Menin MLL FP FL: qHTS Assay for Inhibitors Targeting the Menin-MLL Interaction in MLL Related Leukemias: Competition With Fluorescein Labeled MLL-derived Peptide | Fluorescence polarization, fluorescein-MLL peptide displacement from menin | FP activity change, % at 61.4 µM | 290,000 tested, under 10 active; inconclusive = falling polarisation curve, or a change in total fluorescence; inactive = total fluorescence flat and polarisation flat or rising; no compound was filed as active; the % refers to the polarisation; negative = inhibition;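 note: % of control where 0% means no effect; inhibitors lower the polarisation; unlabelled MLL peptide was the positive control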
ClpP mod: qHTS Assay for Activators of ClpP. 340,000 tested, 1.9% active. ATP-dependent Clp protease proteolytic subunit (Bacillus subtilis (strain 168)), P80244. purified B. subtilis ClpP, FRET peptide cleavage, 20 min. Potency, µM (titrated, usually from 57.5 µM), without a hit: at the highest dose activity change, negative = active; active = well fitted falling curve with a large enough effect; inconclusive = small, poorly fitted or top-dose-only effect; inactive = no such curve, though single readings can be large or run the other way; note: potency is the fitted concentration of half-maximal effect; the source files actives as falling curves though it sought activators and does not explain the sign; nearly all actives have a fitted effect of over 65% in size; many hits overshoot -100%
Target sequence (P80244 whole entry, looked up): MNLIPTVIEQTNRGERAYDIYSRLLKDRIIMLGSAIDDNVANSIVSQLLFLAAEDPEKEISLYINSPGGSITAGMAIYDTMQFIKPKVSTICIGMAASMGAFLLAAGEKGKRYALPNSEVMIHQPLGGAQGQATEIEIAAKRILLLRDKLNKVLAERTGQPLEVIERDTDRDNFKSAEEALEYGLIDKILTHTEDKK
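Buffer: 100 mM Tris/HCl pH8, 100 mM KCl, 0.05% low protease BSA, 2.5% glycerol, 0.01% Tween-20. ClpP 10 microg/mL final; 20 min RT; delta FRET normalized to ADEP and DMSO controls.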
TRPML1 blocker: qHTS for Inhibitors of the Human Mucolipin Transient Receptor Potential 1 (TRPML1); Mucolipin-1 (Homo sapiens), Q9GZU1; TRPML1-inducible cells, Ca2+ dye fluorescence, FDSS; active compounds read low; inhibition of EC80 agonist-evoked calcium signal; activity change, negative = inhibition, % (no concentration beside the values); 390,000 tested, 0.02% active; AID 624415, 2012; in the data active means activity change below about -50%; inconclusive means about -30% to -50%; inactive means above about -30%;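 note: stimulus is agonist 54-4 at its EC80 concentration; % is set by controls: 0 for no effect and ±100 for the full control effect; compound concentration not given in the record; the text of the record puts the active cut at -80%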
Target sequence (Q9GZU1 whole entry, looked up): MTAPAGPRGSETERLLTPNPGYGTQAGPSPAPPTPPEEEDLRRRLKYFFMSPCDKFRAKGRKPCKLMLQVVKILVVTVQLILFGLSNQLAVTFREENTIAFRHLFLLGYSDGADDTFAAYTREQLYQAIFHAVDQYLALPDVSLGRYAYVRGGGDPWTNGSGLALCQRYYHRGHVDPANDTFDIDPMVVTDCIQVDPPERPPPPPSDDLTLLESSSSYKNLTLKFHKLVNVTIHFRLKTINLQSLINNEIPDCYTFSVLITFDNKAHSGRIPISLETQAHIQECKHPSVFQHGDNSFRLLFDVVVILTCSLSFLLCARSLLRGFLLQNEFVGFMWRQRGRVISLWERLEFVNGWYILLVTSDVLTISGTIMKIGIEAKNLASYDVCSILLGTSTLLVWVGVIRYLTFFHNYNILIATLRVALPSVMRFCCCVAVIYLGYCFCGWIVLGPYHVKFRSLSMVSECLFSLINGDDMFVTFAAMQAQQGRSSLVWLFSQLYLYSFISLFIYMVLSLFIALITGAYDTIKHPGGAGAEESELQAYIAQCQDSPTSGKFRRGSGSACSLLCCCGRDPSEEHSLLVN
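TRPML1-DL cells, Tet-induced overnight (~16 h, 37 °C) at 1,500 cells/well, were loaded with Ca8 no-wash dye plus quencher for 45-90 min at room temperature. Compounds were pinned during FDSS kinetic reading; agonist 54-4 at EC80 (4 uM final) then added.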
TRPML1 agonist: qHTS for Agonists of the Human Mucolipin Transient Receptor Potential 1 (TRPML1); AID 624414, 2012; activation, % (no concentration beside the values); 410,000 tested, 0.12% active; Mucolipin-1 (Homo sapiens), Q9GZU1; TRPML1-expressing cells, Ca2+ dye fluorescence, FDSS; host cell line not named in the record; reference of the full effect not given here; in the data active = activation above about 50%; inconclusive = about 30% to 50%; inactive = below about 30%; note: 0% is about no effect; the text of the record puts the active cut at 80%
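Agonist activity was taken from a 110 s kinetic Ca2+ dye read on the FDSS after pinning compounds onto TRPML1-DL cells. The cells were seeded at 1,500/well with Tet inducer, incubated about 16 h, then dye-loaded at room temperature.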
gsp ag: qHTS for Agonist of gsp, the Etiologic Mutation Responsible for Fibrous Dysplasia/McCune-Albright Syndrome: qHTS | AID 624287, 2012 | Potency, µM (highest dose often 76.9 µM), for the others: at the top dose activation (cAMP increase), hits mostly activators | 340,000 tested, 0.13% active | gsp mutant cells, cAMP HTRF, 30 min; control for the full effect not named in the record; active = well fitted activation curve with a large enough effect; inconclusive = small, poorly fitted or top-dose-only effect, or another doubt; inactive = no such curve, though single readings can be large or run the other way; cell line not stated here;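 note: phosphodiesterase inhibitor Ro 20-1724 added with compounds to block cAMP breakdown; potency is the fitted concentration of half-maximal effect; nearly all actives have a fitted effect of over 60% in size; about a fifth of the inactives were tested at one dose only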
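Cells in DMEM/10% FBS with G418 were pretreated with compounds in DMSO plus […] (300 uM stock) for 30 min at 37C. cAMP was measured by HTRF (cAMP-d2 plus anti-cAMP antibody-K) after 30 min at room temperature.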
An asterisk follows results filed as active; ? = inconclusive; . = no result given; [ ] = remark or other dose. Outcome played no part in choosing rows; 2.1% or so of the library scored in one or more.

SMILES	gsp antag	Menin MLL FP FL	ClpP mod	TRPML1 blocker	TRPML1 agonist	gsp ag
COc1cc(C2C(C#N)=C(N)N(c3sc4c(c3C#N)CCCC4)C3=C2C(=O)CC(C)(C)C3)cc(OC)c1OC (centres undefined)	15%	1.9	-0.9%	0	0.5	19%
Cn1c(-c2ccsc2)c(-c2cccs2)c2cc(-c3ccc4cc[nH]c4c3)ccc21	1%	.	19%	51	-0.7	47%
CN=C(c1ccc(C)cc1)n1c(=S)nc(-c2ccc(C)cc2)n(C)c1=S	-8%	-2.3	.	3	0.9	0%[15.4 µM]
CCOc1ccc(OCC(=O)Nc2cc3c(cc2C(=O)O)OCCCO3)cc1	?	1.1	-16%	12	1.5	-31%[inhibitor]
O=C(NCc1ccc2c(c1)OCO2)c1cccc(N2CCCC2=O)c1	0%	0.2	-0.7%	9	0.2	15%
O=C(NCC1COc2ccccc2O1)c1ccc(Cl)c(S(=O)(=O)N2CCOCC2)c1 (centres undefined)	-14%	.	-0.3%	-6	1.5	1%
CCOC(=O)c1c(N)sc(C(=O)N2CCOCC2)c1C	14%	-0.7	-1.5%	11	1.5	0%
N#Cc1cc(S(=O)(=O)c2ccccc2)c(N)[nH]c1=O	2%	1.3	-3.9%	3	-0.2	7%
Cc1ccc(SCC(=O)Nc2ccc3c(c2)C(=O)N(C)C3=O)cc1	-3%	3.8	1.5%	-10	2.2	-51%[inhibitor]
CC(C)N(Cc1cn(C)nc1-c1cccc(Cl)c1)CC1CCC(=O)N1 (centres undefined)	3%	-0.2	0.5%	13	0.8	31%
CCOC(=O)c1c(NC(=O)CS(=O)(=O)c2ccc(Cl)cc2)sc2c1CCCC2	.	.	0.3%	0	0.8	.
CCc1sc(NC(C)=O)nc1-c1ccccc1	2%	1.7	-1.8%	8	0.9	-63%[inhibitor]
O=C(Nc1ccc(OCC(=O)N2CCOCC2)cc1)c1ccccc1F	4%	0.8	.	23	0.6	-5%[15.4 µM]
CCCOc1ccc(N2C(=O)CC(N3CCN(c4ccccc4F)CC3)C2=O)cc1 (centres undefined)	8%	1.2	0.7%	17	0.6	4%
O=C(NCc1ccco1)c1ccc(S(=O)(=O)N2CCCCC2)cc1	-2%	2.5	-2.1%	5	0.7	24%
O=C(CN1CCN(Cc2ccccc2)CC1)N/N=C/c1c[nH]c2ccccc12	6%	0.1	-2.5%	18	0.5	20%
COc1ccc(NC(=O)N2CCN(c3cc(-c4noc(C)n4)ccc3C)CC2)c(OC)c1	.	.	2.3%	0	3.1	.
COc1cccc(/C=C/C(=O)OC(C)C(=O)Nc2c(C)n(C)n(-c3ccccc3)c2=O)c1 (centres undefined)	.	2.8	.	6	-0.2	-20%[15.4 µM]
O=C1NC(=O)C(c2ccc(Cl)cc2)N1 (centres undefined)	4%	0.8	-0.5%	15	0.4	0%
COCC1CCN(Cc2cn(C)nc2-c2cccc(Cl)c2)C1 (centres undefined)	3%	-3.6	.	-7	0.8	11%[15.4 µM]
O=C(Cn1c(SCC(=O)N2CCc3ccccc3C2)nc2ccccc21)NC1CCCC1	-13%	5.5	-1.5%	-2	0.7	-24%
Cc1ccc(C(=O)Nc2nc3ccc(S(C)(=O)=O)cc3s2)s1	3%	2.3	-19%	-9	-0.4	17%
CSC1=NCCN1C(=O)COc1ccccc1	0%	3.9	-1.8%	5	0.1	-6%
CCc1nn(CC(=O)NCc2ccc(OC)cc2OC)c(=O)c2cc3c(OC)cccc3n12	.	.	?	9	-0.5	.
COc1ccc(CCN/C=C2/CC(=O)NC2=O)cc1OC	3%	4.0	-1.6%	8	0.8	-9%
CCn1c(=O)n(CC)c2cc(N3CCCC3)c(NC(=O)c3cc(Cl)ccc3OC)cc21	-17%	0.1	-3.1%	-3	-0.3	-8%
CC[C@H](C)[C@H]1CNC(=S)N1CC1CCN(CCC23CC4CC(CC(C4)C2)C3)CC1	0%	.	0.2%	-4	-0.7	.
COC(=O)CCCCCN1C(=O)/C(=C\c2ccncc2)SC1=S	-29%	0.1	-2.7%	15	3.2	?
O=C(NNC(=S)Nc1ccccc1)c1ccncc1	4%	-1.0	0.8%	8	-1.1	-10%
O=C(Nc1ccc(C(=O)N2CCN(c3ccccc3)CC2)cc1)C1=CSCCO1	-13%	6.2	-1.3%	3	-0.7	?
Cn1c(SCC(=O)N2CCOCC2)nc2cccnc21	25%	-7.3	-0.4%	21	0.9	7%
CCc1ccc(N=C2NC(=O)CS2)cc1	7%	-2.5	0.7%	11	-0.3	-12%[15.4 µM]
O=C(c1ccco1)n1nc(-c2ccccc2)nc1NCc1ccc(Cl)cc1	.	.	-1.4%	-4	0.7	.
COc1ccc(-c2cc(C(F)(F)F)n3nc(C(=O)Nc4sc5c(c4C#N)CCC(C)C5)cc3n2)cc1OC (centres undefined)	.	.	-13%	1	0.1	.
CCCCN1C(=O)/C(=C/C=C2/C=Cc3ccccc3N2CC)SC1=S	.	2.5	.	6	-0.4	-2%[15.4 µM]
CC1=C(C(=O)NCc2ccccc2)C(c2cccnc2)n2ncnc2N1 (centres undefined)	4%	1.7	1.4%	8	-1.5	-49%[inhibitor]
CCOC(=O)c1c(-c2ccc(C)o2)csc1NC(=O)CSc1nncs1	5%	?	-1.3%	-3	0.0	-29%
CCOc1cc(NC2CS(=O)(=O)CC2O)c(OCC)cc1NC(=O)c1ccccc1 (centres undefined)	-21%	7.3	-1.5%	-14	-1.2	-29%
CCOC(=O)c1ccc(-c2ccc(/C=C(\C#N)C(=O)Nc3c(C)cccc3Cl)o2)cc1	.	.	?	-5	1.3	.
COc1ccc(CNC(=S)NNC(=O)c2cc3ccccc3o2)cc1	-5%	-2.3	.	15	0.5	14%
Cc1ccc(OCCCN(C)C)c(Br)c1	10%	6.8	-2.7%	-2	-0.8	-25%
COc1ccc(Cl)cc1NC(=O)NCCCl	-5%	0.0	-4.4%	-4	-0.8	-2%
COCCn1c(SCC(=O)NC2CCCC2)nnc1-c1ccncc1	5%	-15	.	6	-0.4	-19%[15.4 µM]
O=c1cc(/C=C/c2c(F)cccc2Cl)[nH]c2ccccc12	?	-3.0	?	3	-0.4	-16%
Cc1onc(-c2ccccc2)c1C(=O)N1CCN(Cc2ccccc2)CC1	3%	.	-3.5%	6	0.7	-5%[15.4 µM]
COC(=O)CCCC1=CC2=CC(=O)C(C)(OC(=O)c3cccs3)C(=O)C2=CN1Cc1ccc2c(c1)OCO2 (centres undefined)	-4%	6.7[11.7 µM]	-1.2%	2	0.4	9%
CC(=O)Cc1cc(O)c2ccccc2c1OC(=O)c1ccc(Br)cc1	2%	2.7	0.7%	30	0.2	7%
Cc1ccc(C(=O)CSc2nnc(CNc3ccc(C)cc3C)n2Cc2ccco2)cc1	-14%	1.9	-0.4%	73	0.6	-29%

Some values from the results shown.
Value of CCc1ccc(N=C2NC(=O)CS2)cc1 in TRPML1 blocker: 11
Value of O=C(Nc1ccc(OCC(=O)N2CCOCC2)cc1)c1ccccc1F in gsp ag: -5%[15.4 µM]

Other entries follow.
SMILES	gsp antag	Menin MLL FP FL	ClpP mod	TRPML1 blocker	TRPML1 agonist	gsp ag
CC(=O)N1c2ccc(S(=O)(=O)NCCC(=O)NC3CCCCCC3)cc2CC1C (centres undefined)	7%	.	1.8%	-18	1.4	4%
COc1ccc(CNC(=O)c2cnn3c(C(F)F)cc(C)nc23)cc1OC	13%	-0.5	-1.8%	6	-0.9	-3%
CCCOc1ccc(C(=O)N2CCCC2C(=O)O)cc1 (centres undefined)	11%	0.8	-2.5%	-13	-0.2	8%
Cc1ccc(S(=O)(=O)N(C)C)cc1NC(=O)COC(=O)c1sc2cc(Cl)ccc2c1Cl	-2%	2.4	-11%	17	0.9	?
O=C(Nc1sc2c(c1C(=O)Nc1ccccc1)CCC2)c1ccc(Br)cc1	.	.	-16%	-8	-0.6	.
O=C(Oc1ccc2c(c1)OCC2=O)c1ccccc1	2%	0.0	-3.8%	-6	0.1	-3%
COc1ccccc1CNC(=O)c1c2c(nc3ccccc13)C(=O)N(C1CCCCC1)C2	.	.	0.8%	-15	1.1	.
Cc1ccc(-c2cc(C(=O)Nc3cc(C)ccc3O)no2)cc1	4%	.	.	12	0.2	-27%
CC(OC(=O)C1CCN(S(=O)(=O)c2ccccc2C(F)(F)F)CC1)C(=O)N(C)Cc1ccccc1 (centres undefined)	-13%	.	1.7%	20	-0.3	-11%
Cc1nc(N2CCC3(CC2)OCCO3)c2nnn(Cc3ccccc3F)c2n1	-31%	0.6	1.4%	4	-0.2	-7%
CCOc1ccccc1NC(=O)CSc1nc2cc(OC)c(OC)cc2c2nc(CCn3c(C)nc4ccccc43)nn12	.	.	5.5%	-15	0.9	.
CCC(C)OC(=O)/C(C#N)=C\c1ccc(-c2cccc(C(F)(F)F)c2)o1 (centres undefined)	.	.	-0.9%	33	0.3	.
CCNC(=S)N/N=C1\CCCCc2ccccc21	4%	3.4	1.2%	3	0.1	?
CCS(=O)(=O)N1CCCC(C(=O)NC2CCCCC2)C1 (centres undefined)	3%	5.8	-1.1%	0	-0.7	-24%
CN(C)c1ccc(/C=N/NC(=O)c2nnn(-c3nonc3N)c2CN2CCCCCC2)cc1	-26%	.	-4.7%	3	0.7	5%
COc1ccc(NC(=O)CC2C(=O)N(Cc3ccccc3)C(=S)N2CCN2CCOCC2)cc1 (centres undefined)	-17%	1.5	8.9µM*	-3	2.0	5%[15.4 µM]
CCc1ccc(OCC(=O)NCCc2ccc3c(c2)OCCO3)cc1	?	.	2.2%	0	-0.2	-37%[inhibitor]
COCCSc1ccccc1C(=O)Nc1nncs1	0%	3.3	0.5%	-12	-0.1	-25%
CSc1ccc(Cl)c(C(=O)N2CCN(c3ncccn3)CC2)c1	0%	.	-29%	5	1.7	-28%
Cc1ccc(/C=N/n2c(C)cc(C)c(C#N)c2=O)cc1	2%	0.4	-15%	1	0.7	20%
CCCOc1ccc(CSc2ncn[nH]2)cc1	-5%	0.8	1.1%	-12	-0.4	-4%
COc1ccc(-c2c(C)nn3c(N4CCC(C(=O)NCCC(C)C)CC4)cc(C)nc23)cc1OC	.	.	-0.5%	18	-1.0	.
O=C(O)CC1S/C(=N\N=C/c2ccccc2O)N(c2ccc(O)cc2)C1=O (centres undefined)	6%	1.7	.	-11	0.5	?
